Screening results from PubChem BioAssay.
Bead autofluor: counter-screen for toxin protease inhibitors: compound fluorescence. compound autofluorescence counterscreen, microsphere flow cytometry; stronger effect = higher value. fluorescence intensity (concentration not given with the values). actives 3.1% (n = 360,000). AID 624483;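 active means at least 3 SD above the mean of all compounds, about 16000 in these data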;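 further: 100 nL of 1 mM stock went into each well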
The depositor's hits bear a star.

SMILES	Bead autofluor
CC(OC(=O)[C@@H](NS(=O)(=O)c1ccccc1)C(C)C)C(=O)c1c(N)n(C)c(=O)n(C)c1=O (stereo partly specified)	4121
COc1ccc(C(CC(=O)c2ccc(C)cc2)Sc2ccccc2N)cc1 (stereo unspecified)	3804
O=C1CCC(C(=O)N2CCN(c3ccccc3)CC2)CN1Cc1ccc(Cl)cc1 (stereo unspecified)	3909
COc1ccc2c(Cl)cc(NC(=O)Nc3c(C)cccc3C)nc2c1	4165
O=C(C1CCCCC1)N1C[C@@H](n2cc(-c3ccc(F)cc3)nn2)[C@H](O)C[C@@H]1c1ccc(Cl)cc1	2977
Cc1cc(N2CCN(C(=O)c3ccoc3)CC2)n2nc(-c3ccccc3)cc2n1	3954
FCc1nc2nc(Cl)c(Cl)nc2[nH]1	3741
c1ccc2c(c1)C1=NCCN1c1ccccc1-2	3330
CC(C)(C)c1ccc(NC(=O)c2cc(C3CCCN(C(=O)CCc4ccccc4)C3)on2)cc1 (stereo unspecified)	2786
CCN(CC)c1ncnc2c1ncn2[C@H]1CN(Cc2ccncc2)C[C@@H](CO)O1	3928
O=C1NC[C@H](CCCCN2C[C@H](Cc3ccccc3)N(CCC3CCCCC3)C(=O)C2=O)N(CCc2ccccc2)C1=O	4644
CC(=O)N1N=C(N)SC1c1ccc(Cl)c(Cl)c1 (stereo unspecified)	2850
CCCNC(=O)c1cc(C2CCCCN2C(=O)OC)on1 (stereo unspecified)	3002
CC1ON=C(c2ccc(F)cc2)NC1=O (stereo unspecified)	5261
Cc1ccc(S(=O)(=O)N2CC3(O)CN(C(=O)OC(C)C)N(C(=O)OC(C)C)CC3(OC(=O)NCC3CCCCC3)C2)cc1 (stereo unspecified)	4123
CCc1ccc(OC2(C)CCN(CCOc3ccc(C)cc3)C2)cc1 (stereo unspecified)	3879
COc1cc(-c2cnc3c(NC=O)cc(-c4ccc(N5CCN(C)CC5)cc4)cn23)cc(OC)c1OC	2689
CN(C)c1ccc(CC(=O)N2CCCCC2c2cc(C(=O)Nc3ccccc3)no2)cc1 (stereo unspecified)	3912
CCN(CC)C(=O)c1cccc(-c2csc(C(NC(C)=O)c3ccccc3)n2)c1 (stereo unspecified)	3865
CCCNC(=O)C1(C)CCN(Cc2cc3ccccc3o2)C1 (stereo unspecified)	2910
CCOC(=O)C1=CC[C@@H](c2ccc([N+](=O)[O-])cc2)N(S(=O)(=O)c2ccc(C)cc2)[C@H]1c1ccccc1	5403
Cc1cc2nc(-c3ccco3)c(Cc3cccc(F)c3)n2c(C)c1Br	5865
CC(=O)Nc1cncc(-c2ccccc2N(C)C)n1	3531
COc1cccc(CCOC(=O)c2c(-c3ccsc3)oc3c2C(OC(C)=O)CCC3)c1 (stereo unspecified)	6144
O=C(NCc1cccnc1)c1cc(C2CCCN(C(=O)c3cccc(O)c3)C2)on1 (stereo unspecified)	3980
Cc1nc(SCC(=O)Nc2sccc2C(N)=O)c2c(C)c(C)sc2n1	3796
CNc1ccc(/C=C\CCCO)cn1	3076
CC(C)N1CCC1(C)C(=O)Nc1cc(-c2ccccc2)nn1C (stereo unspecified)	3114
COc1ccc(-c2oc3c(c2C#CC(C)(C)O)C(OC)CCC3)cc1 (stereo unspecified)	5769
C[C@H](CO)N1C[C@H](C)[C@H](CN(C)S(=O)(=O)c2ccc(C#N)cc2)OCc2cnnn2CCCC1=O	3783
Cn1c(NCc2cccnc2)nc2cc(-c3ccc(C(=O)N4CCOCC4)cc3)sc2c1=O	3033
CCc1ccccc1NC(=O)CNC(=O)c1ccc(S(=O)(=O)NCc2ccco2)cc1	3555
COCCNc1ncnc2c1ncn2[C@H]1CN(Cc2ccccc2)C[C@@H](CO)O1	3987
CCCCN(C=O)c1c(CC)nc2c(OCCC)cccn12	3096
CC(C)=C(c1ccc(Cl)cc1)c1c(N)ncnc1N	3610
CCOc1ccc(C(=O)N[C@H](C(=O)N2CCN(c3ncccn3)CC2)C(C)C)cc1	3963
CCNC(=O)C1(C)CCN(C(=O)c2ccc(F)cc2Cl)C1 (stereo unspecified)	3361
C#CCN(C[C@@H]1[C@@H](OC(=O)NCc2ccccc2F)[C@@H](OC(=O)NCc2ccccc2F)Cn2c(=O)n(CCCCCC)c(=O)n21)S(=O)(=O)c1ccc(C)cc1	3437
CC1=C(C(=O)N(C(C)C)C(C)C)CC(CC(=O)NCc2ccco2)C(=O)N1Cc1ccc(C(C)(C)C)cc1 (stereo unspecified)	5415
COc1ccc(-c2cc(=O)c3ccc(O)cc3o2)cc1OC	5514
O=C(c1cc2ccccc2o1)N1CCN(Cc2nc3ccccc3s2)CC1	2911
O=C1NCN(c2ccccc2)C12CCN(C(c1cccs1)c1nnnn1C1CCCCC1)CC2 (stereo unspecified)	5655
O=C1Nc2ccccc2CN2C(=O)c3cc(Cl)ccc3NC(=O)C12 (stereo unspecified)	4508
Cc1ccccc1N1CCN(C2CCCN(C(=O)CSc3ccccn3)C2)CC1 (stereo unspecified)	3032
CCN(CC)C(=O)C1=C(C)N(Cc2ccc(F)cc2)C(=O)C(CC(=O)NC(c2ccccc2)c2ccccc2)C1 (stereo unspecified)	3750
COc1ccc(/C=C/C(=O)OCC(=O)c2cc(C)ccc2C)cc1	3422
CC1(C(=O)NS(=O)(=O)C2CC2)CCCN(C(=O)COc2ccccc2)C1 (stereo unspecified)	3819
CCCNC(=O)C1(C)CCCN(C(=O)c2cccc(OC(C)=O)c2C)C1 (stereo unspecified)	2789
CCCCN1C(=O)C(CC(=O)NCc2cccs2)CC(C(=O)N2CCCCCC2)=C1C (stereo unspecified)	5771
COCCNc1nc(Nc2ccccc2Cl)c2sc(-c3ccccc3)cc2n1	3683
O=C(OCC(=O)N1CCN(c2ccccc2)CC1)c1cc(F)c(F)cc1Cl	3807
O=C1Nc2cc(C(=O)NCCN3CCCCCC3)ccc2S/C1=C/c1ccccc1F	4129
CC(=O)c1cccc(-c2ccnc3c2CC(C(=O)NCC2CC2)O3)c1 (stereo unspecified)	4241
Cc1ccc(S(=O)(=O)N2C[C@]3(O)C[C@@H]4C(=O)N(c5ccccc5)C(=O)[C@@H]4C[C@]3(OC(=O)NC3CC3)C2)cc1	3867
CCOC(=O)[C@]12Cc3ccccc3[C@H]1N(C1CCCCC1)C(=O)c1cc(OC)ccc12	4206
CC(C)n1[nH]c2ccccc2c1=O	5817
CCN(CC)C(=O)C1=C(C)N(Cc2ccc(C(C)(C)C)cc2)C(=O)C(CC(=O)NCc2ccco2)C1 (stereo unspecified)	3518
COc1cc(NC(=O)c2ccc(-c3c(C)noc3C)c3ccoc23)cc(OC)c1OC	3967
NC(=O)NN=C1CCC(OCc2ccccc2)CC1CC(=O)O (stereo unspecified)	4295
CCc1nc2ccc(C(=O)NCCCN3CCCC3=O)cn2c1N(CC)C(=O)NCCc1ccccc1	3512

Part of the list above, with bars between the fields.
Compound | Bead autofluor
O=C(c1cc2ccccc2o1)N1CCN(Cc2nc3ccccc3s2)CC1 | 2911
O=C1NCN(c2ccccc2)C12CCN(C(c1cccs1)c1nnnn1C1CCCCC1)CC2 (stereo unspecified) | 5655
O=C1Nc2ccccc2CN2C(=O)c3cc(Cl)ccc3NC(=O)C12 (stereo unspecified) | 4508
Cc1ccccc1N1CCN(C2CCCN(C(=O)CSc3ccccn3)C2)CC1 (stereo unspecified) | 3032
CCN(CC)C(=O)C1=C(C)N(Cc2ccc(F)cc2)C(=O)C(CC(=O)NC(c2ccccc2)c2ccccc2)C1 (stereo unspecified) | 3750
COc1ccc(/C=C/C(=O)OCC(=O)c2cc(C)ccc2C)cc1 | 3422
CC1(C(=O)NS(=O)(=O)C2CC2)CCCN(C(=O)COc2ccccc2)C1 (stereo unspecified) | 3819
CCCNC(=O)C1(C)CCCN(C(=O)c2cccc(OC(C)=O)c2C)C1 (stereo unspecified) | 2789
CCCCN1C(=O)C(CC(=O)NCc2cccs2)CC(C(=O)N2CCCCCC2)=C1C (stereo unspecified) | 5771
COCCNc1nc(Nc2ccccc2Cl)c2sc(-c3ccccc3)cc2n1 | 3683
O=C(OCC(=O)N1CCN(c2ccccc2)CC1)c1cc(F)c(F)cc1Cl | 3807
O=C1Nc2cc(C(=O)NCCN3CCCCCC3)ccc2S/C1=C/c1ccccc1F | 4129
CC(=O)c1cccc(-c2ccnc3c2CC(C(=O)NCC2CC2)O3)c1 (stereo unspecified) | 4241
Cc1ccc(S(=O)(=O)N2C[C@]3(O)C[C@@H]4C(=O)N(c5ccccc5)C(=O)[C@@H]4C[C@]3(OC(=O)NC3CC3)C2)cc1 | 3867

(further entries)
SMILES	Bead autofluor
CCN1CCC[C@H]1CNCCCn1cnc2c(SC)ncnc21	3721
COCCCNC1=C(C#N)C(=O)NC(c2cccs2)S1 (stereo unspecified)	3447
CC1CC(C)CN(C(C(=O)NC2CCCCC2)c2ccnc3ccccc23)C1 (stereo unspecified)	6107
CS(=O)(=O)c1ccc(Nc2nc(C(N)Cc3ccccc3)cs2)cc1 (stereo unspecified)	3751
COCC(=O)N1C[C@H]2CON(C)[C@H]2C[C@H]1c1ccc(N2CCCCC2)cc1	5790
OC(c1cc(F)cc(Cl)c1)c1ncc(-c2ccc3ccccc3c2)[nH]1 (stereo unspecified)	3913
CCc1nc2ccc(C(=O)N(CC)CCN(C)C)cn2c1N(CC)C(=O)NCCc1ccccc1	3880
CCOC1=C2[C@@H](CN(S(=O)(=O)c3ccc(C)cc3)[C@H]2c2ccccc2F)[C@H]2C(=O)N(c3ccccc3)C(=O)[C@H]2C1	6215
CCOC(=O)C1(C)CCN1C(=O)c1cc(F)ccc1C (stereo unspecified)	3806
C[C@H](CO)N1C[C@H](C)[C@H](CN(C)C(=O)c2ccncc2)OCc2cnnn2CCCC1=O	3760
CCCNC(=O)C1(C)CCN1C(=O)Cc1ccc(-c2ccccc2)cc1 (stereo unspecified)	3247
CCOC(=O)[C@]12CCCC=C1N(Cc1ccco1)C(=O)[C@H](CC(=O)N1CCCC1)C2	4333
CN(C)c1ccc(CNC(=O)/C=C/[C@H]2O[C@@H](n3cnc4c(NC(=O)c5ccccc5)ncnc43)[C@H](O)[C@@H]2O)cc1	4591
COc1ccc(NC(=O)C2c3ccccc3OCC(=O)N2Cc2cccnc2)cc1 (stereo unspecified)	5510
C[C@H](CO)N1C[C@H](C)[C@@H](CN(C)Cc2ccc3c(c2)OCO3)Oc2cc(Br)ccc2S1(=O)=O	3557
CN(C)CCCNC(=O)c1cccc(-c2cnc3cccnn23)c1	3765
CC1(C(=O)NCc2cccc3ccccc23)CCN1Cc1ccc2ccccc2c1 (stereo unspecified)	3552
OC(c1ccc(F)c(F)c1)c1ncc(-c2ccc(F)cc2)[nH]1 (stereo unspecified)	3647
CCOC(=O)C1=CCN(S(=O)(=O)c2cccc(Cl)c2)C1c1ccc(Br)cc1 (stereo unspecified)	6085
CCCCCCN1C[C@H](O)[C@@H](n2cc(-c3ccc(F)cc3)nn2)C[C@@H]1c1ccc(Cl)cc1	3844
CCCCNC(=O)C1(C)CCN1C(=O)c1cccc(OC(C)=O)c1C (stereo unspecified)	3356
O=C([C@H]1O[C@@H](n2ccc(=O)[nH]c2=O)[C@H](O)[C@@H]1O)N1CCN(c2ccc(Cl)cn2)CC1	6085
CSc1ncccc1C(=O)N1CCCC(N2CCN(c3ccccc3C)CC2)C1 (stereo unspecified)	3701
O=C(Nc1cccc2cccnc12)c1csc([C@@H]2O[C@H](CO)[C@H](O)[C@H](O)[C@H]2O)n1	3055
CNc1ncnc2c1ncn2[C@H]1CN(Cc2cccs2)C[C@@H](CO)O1	3606
CCOC(=O)C1CCCN(C(=O)c2ccc(OC)cc2OC)CC1 (stereo unspecified)	3726
O=C(Nc1ccccc1)c1cc(C2COCCN2C(=O)c2cccs2)on1 (stereo unspecified)	2875
CN(Cc1ccc(Cl)c(Cl)c1)C(=O)C1CC(=O)N(c2ccc3c(c2)OCCO3)C1 (stereo unspecified)	3327
O=C(NC1CC1)c1cccc(-c2cncc3nccn23)c1	3787
CCc1nc2c(OCc3ccccc3C(=O)OC)cccn2c1N(C)C(=O)CC(C)C	4530
COc1ccc(NC(=O)c2ccc(NC(=O)c3cccnc3)cc2)cc1	3732
O=C(NCCCN1CCC(Cc2ccccc2)CC1)c1ccc(CS(=O)c2ccccc2Cl)o1 (stereo unspecified)	3491
Cc1cccc(NC(=O)CN(C)C(=O)Cc2ccc(-c3ccccc3)cc2)c1C	3632
OCc1cccc(-c2cnc3c(Nc4cccc(OC(F)(F)C(F)F)c4)nccn23)c1	2769
CCc1nc2ccc(C(=O)NC3CCN(Cc4ccccc4)CC3)cn2c1N(C)Cc1cccs1	5058
C[C@H]1CN(CCc2ccccc2)C(=O)[C@@H]1CC(=O)Nc1ccccc1	3665
Cc1c(N(C)S(=O)(=O)c2cccc(C(=O)NCc3cccnc3)c2)c(=O)n(-c2ccccc2)n1C	3832
Nc1ccn([C@@H]2O[C@H](C(=O)N3CCN(Cc4ccccn4)CC3)[C@@H](O)[C@H]2O)c(=O)n1	5219
CCC(=NNS(=O)(=O)c1ccc(C)cc1)c1ccc(OC)c(C)c1	3889
CN(C)c1cccc(NC(=O)C2(C)Cc3c(-c4cccnc4)ccnc3O2)c1 (stereo unspecified)	3643
COc1ccc(CCNS(=O)(=O)c2ccc3c(c2)CC(C)N3C(=O)C2CC2)cc1OC (stereo unspecified)	4117
COc1ccccc1-c1csc(C(C)(NC(C)=O)c2ccccc2)n1 (stereo unspecified)	3742
CCOc1ccc(CCN2C(=O)C(=O)N([C@@H](CC(C)C)CN3CCC[C@H]3CN3C(=O)C(=O)NC[C@@H]3CC(C)C)C[C@@H]2CC(C)C)cc1	5007
CCCNC(=O)c1cc2c(c(-c3cccc(-c4ccccc4F)c3)n1)[C@@H](CCO)N(C(=O)CC1CC1)C2	5568
COCCN1C(=O)CCC1(C)c1nnnn1-c1c(C)cccc1C (stereo unspecified)	4157
O=S(=O)(c1cc(Cl)cc(Cl)c1)N1Cc2cc(-c3cccc(F)c3)ccc2-n2nncc2C1	5372
CCC(c1nnnn1-c1ccc2c(c1)OCCO2)N1CCN(c2ccc(OC)cc2)CC1 (stereo unspecified)	4464

Some of the compounds tested. The share of hits here may be higher or lower than overall.
